# Screens deposited in PubChem by Southern Research Institute.
# Mtb H37Rv: Mycobacterium tuberculosis H37Rv growth inhibition, cell based, confirmatory dose response (AID 1949). one-dose inhibition, % at 10 µg/mL; IC50 in µg/mL for titrated hits. M. tuberculosis H37Rv growth inhibition. 1.6% of 100,000 active. most inactive calls were filed without a number and no value below 0 was filed;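 active = confirmed in a dose series; inconclusive = about 50% or more but not retested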;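 note: bacteria grown 7 days with compound before Alamar blue readout; 0% = untreated bacteria and 100% = reference antibiotic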
# Active calls of the source: *; i = inactive; ? = inconclusive. Only part of the results is shown, so the mix of outcomes need not match the whole.
SMILES	Mtb H37Rv
CCc1ccc(CCC(=O)Nc2ccc(C)cc2C)o1	i
O=C(c1cccc(Cl)c1)N1CCC(N(CCc2ccccc2)Cc2ccccc2)CC1	5.0%
CN(C(=O)CCC(=O)O)C1CCCCC1	i
COc1cc2c(cc1NC(=O)c1c(C)noc1C)oc1ccccc12	i
CCOc1cccc(C2C(C(=O)c3cccs3)=C(O)C(=O)N2CCN(C)C)c1 (stereo not given)	1.5%
CCOC(=O)CN(c1cccc(C)c1)S(=O)(=O)c1ccccc1	i
COc1ccc(NC(=O)C(C)Oc2ccc(Cl)cc2C)cc1 (stereo not given)	i
Cc1ccc(S(=O)(=O)Nc2ccc(NS(=O)(=O)c3ccc([N+](=O)[O-])cc3)cc2)cc1	i
COC(=O)C1=C(C)Nc2c(c(=O)n(C)c(=O)n2C)C1c1ccccc1Cl (stereo not given)	i
O=C(CSCc1ccccc1Cl)NC1CCCCCC1	i

SMILES	Mtb H37Rv
Cc1cc(C)c(S(=O)(=O)N2CCN(C(=O)c3ccccc3Cl)CC2)c(C)c1	3.5%
C=CCNC(=S)N1CCN(c2ncc3c(=O)c(C(=O)O)cn(CC)c3n2)CC1	6.9%
COc1ccc(S(=O)(=O)Nc2ccc(Br)cc2)c(C)c1C	16.1%
CCOC(=O)C1=NN(C(=O)c2ccccc2)C2C(=O)N(CC)C(=O)C12 (stereo not given)	i
COc1ccccc1NC(=O)c1c(Br)cnn1C	i
COc1ccc2c(c1)c(=O)oc1cc(OC(C(=O)O)c3ccccc3)ccc12 (stereo not given)	i
COc1c(S(=O)(=O)N2CCC(C(N)=O)CC2)ccc(Cl)c1Cl	i
COc1ccc(-c2nnc(SCC(=O)Nc3ccc(C)cc3C)n2-c2ccccc2)cc1OC	i
COc1c(C)cc(Br)cc1C(=O)Nc1sc2c(c1C(N)=O)CCC(C)C2 (stereo not given)	0.1%
C=CCN(c1ccc(C(=O)O)cc1)S(C)(=O)=O	i

SMILES	Mtb H37Rv
CCOc1ccc(Nc2nc(C)c(C(C)=O)s2)cc1	4.4%
COC(=O)CC1C(=O)NC2CCCCC2N1C(=O)Nc1ccc(Cl)cc1 (stereo not given)	i
CCOC(=O)C(=O)Nc1ccc(C#N)cc1	i
Cc1cc(C)n(C(=O)CNc2ccc(C)c(C)c2)n1	i
Cc1ccc(-n2c(SCC(=O)Nc3ccccc3-c3ccccc3)nc3ccccc3c2=O)cc1	2.4%
COC(=O)C1CCN(S(=O)(=O)c2cc(Cl)ccc2Cl)CC1	0.1%
Cc1ccc(OCC(=O)Nc2nncs2)cc1	i
CC(C)NC(=O)Cn1cc(C(=O)c2ccccc2)c2ccccc21	i
CCC(=O)N1CC2(c3ccccc3)CN(C(=O)CC)CC(c3ccccc3)(C1)C2=O	i
CCNC(=S)N1CCCCC1CO (stereo not given)	i

SMILES	Mtb H37Rv
Cc1ccc(NC(=O)COc2ccc(Br)cc2C)cc1Cl	i
COc1ccc(C)cc1NC(=O)c1ccc(CN(c2ccc(C)c(C)c2)S(C)(=O)=O)cc1	4.8%
CCc1ccc(NC(=O)CN(c2ccccc2)S(=O)(=O)N(C)C)cc1	i
COC(=O)c1ccccc1NC1=NS(=O)(=O)c2ccccc21	i
O=C(Oc1ccccc1)c1ccc(N2CCCC2)c([N+](=O)[O-])c1	30.0%
CSc1cccc(NC(=O)CSc2ccc(F)cc2)c1	2.86µg/mL*
Cc1ccc2ccc(C(Nc3ccccn3)c3ccc(Cl)c(Cl)c3)c(O)c2n1 (stereo not given)	i
COc1cccc(CNc2ccc(C(=O)O)cc2)c1OCc1ccccc1	i
CCc1cc(Br)ccc1NC(=S)Nc1sc(C)c(-c2ccccc2)c1C(=O)OC	i
O=C(CSc1ccc(Cl)cc1)Nc1cccc(-c2nc3ncccc3o2)c1	i

SMILES	Mtb H37Rv
CC(=O)N(C)c1ccc(NC(=O)COc2ccc([N+](=O)[O-])cc2)cc1	i
Cn1ccnc1CN1CCN(Cc2nccn2C)CC1	i
COCCCNC(=O)c1c(NC(=O)C(C)Oc2ccc(Cl)c(C)c2)sc2c1CCCC2 (stereo not given)	i
CCCCc1cc(=O)oc2cc(OCC(=O)Nc3ccc(CC)cc3)ccc12	4.5%
Cc1ccc(OCCOCCN2CCOCC2)c(Br)c1	3.1%
COC(=O)c1ccc(COC(=O)c2cccc(OC)c2)cc1	13.2%
CC1(C(=O)Nc2cccc(F)c2)Cc2ccccc2C(=O)O1 (stereo not given)	i
COc1ccc(S(=O)(=O)Nc2cccc(C(C)=O)c2)cc1OC	1.0%
COc1ccc(NC(=S)NNC(=O)CSCc2ccccc2Br)cc1OC	i
COc1ccccc1Nc1nc(N)nc(CSc2nnc(C)s2)n1	i

# Given as labelled records: four of the compounds above.
Cc1ccc(-n2c(SCC(=O)Nc3ccccc3-c3ccccc3)nc3ccccc3c2=O)cc1
- Mtb H37Rv: 2.4%

COC(=O)C1CCN(S(=O)(=O)c2cc(Cl)ccc2Cl)CC1
- Mtb H37Rv: 0.1%

Cc1ccc(OCC(=O)Nc2nncs2)cc1
- Mtb H37Rv: i

CC(C)NC(=O)Cn1cc(C(=O)c2ccccc2)c2ccccc21
- Mtb H37Rv: i

# Later entries
SMILES	Mtb H37Rv
CCOC(=O)c1sc(NC(=O)COc2c(C)ccc(C)c2C)c(C(=O)OCC)c1C	10.8%
CN1CCN(C(=O)CN(c2cccc(C(F)(F)F)c2)S(=O)(=O)c2ccccc2)CC1	i
COc1ccc2oc(CCC(C)=O)c(-c3ccc(C)o3)c2c1	4.5%
CC(C)C(=O)Nc1nc(-c2ccc(S(=O)(=O)N3CCOCC3)cc2)cs1	i
CC(Sc1nnc(-c2ccc(Br)cc2)n1-c1ccccc1)C(=O)O (stereo not given)	i
O=C(Cc1cccs1)Nc1cc(Cl)ccc1Cl	i
CC1CCCC(C)N1CC(O)COCc1ccc(Cl)cc1 (stereo not given)	i
COc1ccc2c(c1)CCC1=C2NC(=S)NC1c1ccc(F)cc1 (stereo not given)	i
Cc1ccc(SCCNC(=O)C2CCCN2S(=O)(=O)c2ccccc2)cc1 (stereo not given)	1.3%
CCOc1ccc(NC(=O)COc2ccc3oc(-c4ccc(OC)cc4)cc(=O)c3c2)cc1	i

SMILES	Mtb H37Rv
Cc1ccc(S(=O)(=O)N2CCCC2C(=O)N2CCOCC2)cc1 (stereo not given)	i
O=C1CSC(c2ccc3c(c2)OCO3)N1c1ccc(Cl)cc1 (stereo not given)	0.8%
CN1CCN(c2cc(N)nc(N)n2)CC1	i
O=C(NCc1cccnc1)C(=O)Nc1nc2ccccc2s1	i
O=[N+]([O-])c1ccc(CN2CCC(N3CCCC3)CC2)cc1	i
Cc1ccccc1NC(=O)C(Cc1ccccc1)NC(=O)c1ccccc1 (stereo not given)	37.5µg/mL*
CC(=O)c1ccc(NC(=S)NNC(=O)COc2ccc(C(C)(C)C)cc2)cc1	i
O=C(Nc1ccc(Br)cn1)c1cc(Cl)ccc1Cl	20.1%
Cc1nc(NC(=O)c2cccc(F)c2)ccc1Br	13.8%
COc1ccc(CC(=O)NCCC2=CCCCC2)cc1	i

SMILES	Mtb H37Rv
CCOC(=O)C1=NN(c2ccc(C)cc2)CC1C(=O)OC (stereo not given)	i
CCOc1ccc(C(=O)Oc2ccc3c(=O)c(Oc4ccc(OC)cc4)coc3c2)cc1	i
Cc1ccc2nc(-c3ccc(NC(=O)CN4CCc5ccccc5C4)cc3)sc2c1	i
COc1ccc(/C=C2/SC(=O)N(CCC(=O)Nc3ccc(S(N)(=O)=O)cc3)C2=O)cc1	i
CCOc1ccc(-n2cnc3scc(-c4ccc(Br)cc4)c3c2=O)cc1	i
COc1ccc(-c2cc(=O)oc3cc(OCc4cc(OC)c(OC)c(OC)c4)ccc23)cc1	8.0%
Cc1ccccc1N1C(=O)NC(=O)/C(=C\c2ccc(N3CCCC3)cc2)C1=O	i
O=C(COc1ccccc1Br)N1CCCC1	i
Cc1ccc(OCC(=O)N2CCN(C(=O)c3ccncc3)CC2)cc1	i
Cc1ccc(-c2cc(C(=O)O)[nH]n2)cc1	i

SMILES	Mtb H37Rv
Cc1[nH]c2ccccc2c1C(=O)CSc1nc2ccccc2o1	?
O=[N+]([O-])/C=C/c1ccc(-c2ccc(F)cc2)o1	10.1µg/mL*
Cc1ccc(C(=O)Nc2nc3ccc([N+](=O)[O-])cc3s2)o1	i
CCOc1cc(C#N)ccc1OCc1ccccc1C	2.9%
CN(C)c1ccc(C2C=C(c3ccc(Br)cc3)Nc3nnnn32)cc1 (stereo not given)	i
COc1ccc(-c2csc(N(C)c3ccc(O)cc3)n2)cc1	11.1%
COC(=O)C(C(=O)OC)N1C(=O)CCC1=O	8.1%
Cc1ccc(NC(=O)CSc2nnc(C)s2)c(C)c1	3.3%
Cn1nnc(NC(=O)COc2ccc(C3CCCCC3)cc2)n1	2.85µg/mL*
COc1ccc(Oc2coc3c(CN(C)C)c(O)ccc3c2=O)cc1	i

SMILES	Mtb H37Rv
O=C(O)c1cc(S(=O)(=O)N2CCCCC2)c(Cl)cc1N1CCCCC1	i
N#CC1=C(SCc2ccccc2Cl)NC(=O)CC1c1ccco1 (stereo not given)	0.2%
CC1CCN(c2ccc(F)cc2[N+](=O)[O-])CC1	i
Cn1c(SCC(=O)NC2CCCCC2)nnc1-c1ccc(NC(=O)c2ccccc2Cl)cc1	i
CCCCOc1cccc(C(=O)NC(=S)Nc2ccccc2N2CCCC2)c1	9.1%
CCOc1ccc(N2CC(C(=O)Nc3ccc(N(C)C)cc3)CC2=O)cc1 (stereo not given)	i
O=C(CC12CC3CC(CC(C3)C1)C2)Nc1ccc(N2CCN(Cc3ccccc3F)CC2)cc1	i
CSc1nc2ccc(S(=O)(=O)Nc3c(C)n(C)n(-c4ccccc4)c3=O)cc2s1	i
CCOc1ccc(NC(=S)Nc2ccc(OC(F)(F)F)cc2)cc1	?
CCCc1[nH]nc2c1C(c1ccccc1C(F)(F)F)C(C#N)=C(N)O2 (stereo not given)	i

SMILES	Mtb H37Rv
NC(N)=N/N=C/c1ccc(OCc2ccc(Cl)cc2Cl)cc1	11µg/mL*
Cc1ccc(NC(=O)C(Cl)Cl)cc1[N+](=O)[O-]	2.18µg/mL*
CCOC(=O)C(C)Oc1cc(Cl)c(C=O)cc1OC (stereo not given)	i
COC(=O)c1ccccc1NC(=O)CN(c1cccc(Cl)c1Cl)S(=O)(=O)c1ccccc1	i
COc1cccc(OC)c1C(=O)NC(=S)NCc1ccccc1	i
CC(C)CC(NS(=O)(=O)c1cccs1)C(=O)O (stereo not given)	i
Cc1ccc(SCCNC(=S)Nc2ccc(Nc3ccccc3)cc2)cc1	4.03µg/mL*
O=C(CS(=O)(=O)c1ccccc1)N1CCc2ccccc21	i
COc1cc(OC)nc(NC(=O)CSc2nc3ccccc3s2)n1	0.2%
O=[N+]([O-])c1cc(Cl)ccc1-c1nc(-c2cccnc2)no1	i

SMILES	Mtb H37Rv
CCn1c(SCC(N)=O)nc2ccc(I)cc2c1=O	i
Cc1nc(SCc2ccccc2)nc2ccccc12	5.7%
O=C(c1cccnc1)N1CCN(c2ccc(Cl)c(Cl)c2)CC1	i
CC(=O)c1ccc(-n2c(-c3cc(-c4ccsc4)n[nH]3)n[nH]c2=S)cc1	i
O=C(CSc1nc(-c2ccccc2)cc(=O)[nH]1)N1CCc2ccccc21	i
O=C(CSc1nnc(-c2ccco2)n1-c1ccccc1)Nc1ccnc2ccccc12	0.1%
O=C(O)c1ccc(S(=O)(=O)C(F)(F)F)cc1	i
O=C(CCc1ccccc1)N1CCN(CCO)CC1	i
O=C(NC(=S)Nc1ccccc1C(=O)NC1CCCCC1)c1cccs1	i
COc1ccc(-c2cn(S(=O)(=O)c3ccc(OC)c(C(C)(C)C)c3)nc2N)cc1	i

SMILES	Mtb H37Rv
COC(=O)c1ccccc1NC(=O)CSc1n[nH]c(-c2ccccc2)n1	i
Cc1cc(S(=O)(=O)N2CCCC2)ccc1OCC(=O)Nc1ccc(F)c(Cl)c1	i
Cc1cccc(NC(=O)CN2CCN(CC(=O)Nc3cccc(C)c3)CC2)c1	0.6%
CC(=O)N(CCC(c1ccccc1)c1ccco1)Cc1ccc(F)cc1 (stereo not given)	i
Cn1nc(-c2ccc(C(=O)NCC3CCCO3)cc2)c2ccccc2c1=O (stereo not given)	i
Cc1ccc(-c2nn(C)c(=O)c3ccccc23)cc1CNC(=O)c1cccs1	i
CCOC(=O)c1ccc(NC(=O)c2c(NC(=O)CN3CCCC3)sc3c2CCC3)cc1	i
CC(C)(C)c1cc(C(=O)N2CCCC2)cc(C(C)(C)C)c1	4.6%
COc1cc(CNCc2cccs2)ccc1OCc1ccccc1	i
Cc1cc(C)n2nc(-c3cccnc3)nc2n1	i

SMILES	Mtb H37Rv
Cc1ccc(N2CCN(C3=NC(=O)/C(=C\c4cccc([N+](=O)[O-])c4)S3)CC2)cc1Cl	i
Cc1ccc(S(=O)(=O)Nc2ccc(O)c(C3=C(N4CCOCC4)/C(=C/c4ccccc4)CC3)c2)cc1	i
CC(C)(C)c1ccc(OCC(=O)Nc2ccccc2C(N)=O)c(Br)c1	5.5%
Cn1c(SCCc2ccccc2)nnc1-c1cccc([N+](=O)[O-])c1	9.1%
CCCNS(=O)(=O)c1ccc(OCC(=O)N2CCN(Cc3ccc4c(c3)OCO4)CC2)cc1	i
CC1=C(C(=O)OCC2CCCO2)C(c2ccccc2OC(C)C)C2=C(CC(c3cccs3)CC2=O)N1 (stereo not given)	i
Cc1ccc(NC(=O)CSc2nnc(C(C)NC(=O)c3ccccc3Br)n2C)cc1Cl (stereo not given)	i
O=c1[nH]c2ccccc2cc1CN(Cc1ccco1)S(=O)(=O)c1ccccc1	i
